STK33 inh – blocks human STK33 kinase activity; Q9BYT3; purified STK33, MBP phosphorylation, ADP-Glo luminescence; inhibition, % at 10 µM; 320,000 tested, 0.073% active; AID 2661;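 active means inhibition at or above 25%, using the most active replicate where run in duplicate; inactive means inhibition below 25%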
Target sequence (Q9BYT3 whole entry, looked up): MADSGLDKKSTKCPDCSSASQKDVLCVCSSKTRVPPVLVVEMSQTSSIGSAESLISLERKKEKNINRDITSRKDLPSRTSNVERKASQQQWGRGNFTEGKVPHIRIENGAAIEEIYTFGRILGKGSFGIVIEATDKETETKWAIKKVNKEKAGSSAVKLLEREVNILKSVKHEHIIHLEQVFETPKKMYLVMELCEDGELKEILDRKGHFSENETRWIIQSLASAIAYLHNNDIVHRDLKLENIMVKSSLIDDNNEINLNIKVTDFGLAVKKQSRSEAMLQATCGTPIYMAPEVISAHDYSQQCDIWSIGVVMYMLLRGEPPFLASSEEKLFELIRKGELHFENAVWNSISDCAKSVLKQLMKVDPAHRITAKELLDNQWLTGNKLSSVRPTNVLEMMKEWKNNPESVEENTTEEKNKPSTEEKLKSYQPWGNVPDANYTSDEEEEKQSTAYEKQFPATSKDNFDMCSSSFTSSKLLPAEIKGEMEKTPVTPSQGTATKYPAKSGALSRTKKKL
* hit, by the source's call. The list is partial, and most or all hits are left out here.

SMILES	STK33 inh
O=C(CCc1ccccc1)N1CCN(Cc2ccc(F)cc2Cl)CC1	-0.7
Cc1cc(-c2nnc3sc(C4CCCCC4)nn23)n[nH]1	-1.1
O=C(/C=C/c1ccco1)NCC(=O)N/N=C/c1ccc(Cl)cc1	0.2
CC(=O)O[C@H]1CC[C@H]2[C@@H]3CCc4cc(O)ccc4[C@H]3CC[C@]12C	0.5
Cc1ccc2c(C)c(C(=O)N3CCN(Cc4ccccn4)CC3)oc2c1C	-0.1
Cc1cc(NC2CCCC2)n2ncc(-c3ccccc3)c2n1	3.0
CCOc1ccc(CNC(=O)C2CCCN(c3nnc(C)c4c(C)n(-c5ccccc5)nc34)C2)cc1 (configuration not stated)	-0.9
CCOC(=O)c1nn(-c2ccccc2F)c2nc(Nc3ccccc3)cc(=O)n12	-0.5
Oc1c(C(c2ccc(F)cc2)N2CCc3ccccc3C2)sc2ncnn12 (configuration not stated)	0.1
CC(C(=O)NCCCc1ccccc1)n1cccc1C(=O)c1ccccc1 (configuration not stated)	-0.1
Fc1ccccc1-c1csc(=Nc2cccnc2)n1CC1CCCO1 (configuration not stated)	-2.6
Cn1c(N)c(C(=O)COC(=O)COc2ccc3ccccc3c2)c(=O)n(C)c1=O	-1.7
CC(C(=O)NCc1ccc2c(c1)OCO2)c1ccc([N+](=O)[O-])cc1 (configuration not stated)	-1.3
CC1(OC(=O)CCc2ccccc2)C(=O)C=C2C=C(c3ccc(C#N)cc3)N(Cc3ccco3)C=C2C1=O (configuration not stated)	-0.7
Cc1ccc(NC(=O)CSc2nnc(-c3cccs3)n2Cc2ccco2)cc1	-0.5
CCCOc1ccc(NC(=O)C2OC3OC(C)(C)OC3C3OC(C)(C)OC23)cc1 (configuration not stated)	-0.1
N#Cc1c(-c2ccccc2)nc(SCC(=O)NC2CCCCC2)[nH]c1=O	-0.8
Cc1ccc(C)c(N=C2CCCN2Cc2ccccc2)c1C#N	-1.0
Cc1ccc(C(C(=O)NCCc2ccccc2)N(C(=O)c2csnn2)C2CC2)cc1 (configuration not stated)	0.8
Cc1nc2ccccc2n1Cc1ccccc1Br	-1.9
CNC(=O)COC(=O)CCC(=O)c1cccs1	-1.8
O=C(Cn1cc(C(=O)c2ccco2)c2ccccc21)Nc1ccccc1	0.3
CCN(c1cc(C)cc(C)c1)S(=O)(=O)c1nnc(NC(=O)c2ccco2)s1	0.2
O=[N+]([O-])c1ccc(Cl)c(CN2CCCCCC2)c1	-0.5
Cc1ccc2[nH]c(=O)c(CN(Cc3nnnn3C3CCCC3)C3CCCCC3)cc2c1	-2.3

More compounds
SMILES	STK33 inh
CCn1c(CNC(=O)c2cccc(C)c2)nnc1SCC(=O)NC1=NCCS1	0.7
COc1ccc(Nc2ncc3c(n2)CC(c2ccccc2)CC3=O)cc1 (configuration not stated)	-0.9
COc1ccc(CNC(=O)c2cc(S(=O)(=O)N3CCOCC3)cn2C)cc1	-1.7
CCC(C)NS(=O)(=O)c1ccc(F)c(C(=O)Nc2c(F)cc(F)cc2Br)c1 (configuration not stated)	-1.1
Cc1ccc(-n2c(C)nnc2SCC(=O)N2CCc3ccccc3C2)cc1C	-5.4
COc1ccc(-c2nnc(SCc3nnc(-c4ccccc4)o3)n2-c2ccccc2)cc1	-1.0
CCOC(=O)CCC(=O)OCC(=O)NC(C)C1CC2CCC1C2 (configuration not stated)	-1.1
COCCNC(=O)c1c[nH]c2ccc(S(=O)(=O)Nc3ccc(F)cc3F)cc2c1=O	2.1
O=C(Nc1nccs1)c1ccccc1Br	-0.4
C/C(=N/NS(=O)(=O)c1ccc(C)cc1)[C@H]1C[C@@H]1c1ccccc1	-0.1
Cc1noc(C)c1C(=O)OCC(=O)NCCc1ccc(Cl)cc1	-5.8
C=CCN(CC=C)CCOc1ccccc1[N+](=O)[O-]	0.2
S=C1NC2(CCCCC2)N=C1c1ccccc1	-0.4
CC(=O)Nc1ccc(S(=O)(=O)N2CCN(S(=O)(=O)c3ccccc3)CC2)cc1	0.4
NS(=O)(=O)c1ccc(N=Cc2ccc(Br)s2)cc1	-0.4
Cc1cccc(CCN2C(N(C)C)=NC[C@@H]2C)c1	-0.3
O=C(CNC(=O)c1cccs1)N/N=C/c1ccccc1[N+](=O)[O-]	0.2
COc1ccc2c(c1)[nH]c1c(=O)n(/N=C/C3C(C)C=C(C)CC3C)c(=O)[nH]c12 (configuration not stated)	0.8
O=C(NN1S(=O)(=O)c2ccccc2S1(=O)=O)c1ccc(Br)cc1	-1.2
C/C(=N\Nc1ccc(F)cc1F)c1ccc(Br)s1	-0.5
CC1CCc2c(sc(N)c2C(N)=O)C1 (configuration not stated)	19
COC(=O)[C@@H](N)CS	-0.8
CCOc1cc(C2C(C#N)=C(N)OC(C)=C2C(C)=O)c(Br)c(Br)c1OC(C)C (configuration not stated)	-0.2
CCOC(=O)c1ccc(N2CCOCC2)c(NC(=O)c2ccc3c(c2)OCO3)c1	-0.2
CCc1nc2ccc(C(=O)N3CCN(c4cc(C)ccc4C)CC3)cc2nc1CC	-0.1

Continued:
SMILES	STK33 inh
N#CC(C(=O)CCN1C(=O)C2CC=CCC2C1=O)c1nc2ccccc2[nH]1 (configuration not stated)	-0.5
CCCCOc1ccc(Cl)cc1CSc1nnc(CC)n1N	-0.4
CC(=O)OCC1CCCC2=C(C)C(=O)CCC21COC(C)=O (configuration not stated)	-0.2
CCN1CCN(C(=O)CN(C)S(=O)(=O)c2ccc(OC)cc2)CC1	0.1
COc1ccc(C)cc1Nc1nc(-c2c(C)[nH]c3ccccc23)cs1	-1.1
CCOc1ccc(Cl)cc1CNc1nnnn1C	-0.7
COc1cc(C2NC(=O)NC3=C2C(=O)OC3)cc(OC)c1OC (configuration not stated)	0.8
N#Cc1c(NC(=O)CSCC(=O)O)sc2c1CCCC2	-1.0
O=C1CC(NCCc2ccccc2)C(=O)N1CCc1ccccc1 (configuration not stated)	-0.3
CCOC(=O)c1[nH]nc2c1C(=O)N(CC)C2=O	1.0
CCC(=O)NC(=S)Nc1ccc(NC(=O)c2ccc(C)c([N+](=O)[O-])c2)cc1	-0.1
N#Cc1ccc(NC(=O)COC(=O)C2Cc3ccccc3CN2C(=O)c2ccccc2)cc1 (configuration not stated)	-0.9
O=C(C1=C[C@@H](c2coc3ccccc3c2=O)C[C@@H](OCc2ccc(CO)cc2)O1)N1CCCCCCC1	-0.2
O=C(CN1C(=O)c2ccccc2C1=O)Nc1nnc(C2CCCO2)s1 (configuration not stated)	0.3
CN(C)S(=O)(=O)c1cccc(NC(=O)COC(=O)COc2ccccc2[N+](=O)[O-])c1	-1.1
O=C(CC12CC3CC(CC(C3)C1)C2)NCO	-0.5
CCN(C(=O)C1CCCN(c2ncnc3c2nc2n3CCCCC2)C1)c1cccc(Cl)c1 (configuration not stated)	3.0
Cc1ccc(-c2nc(NC(=O)CSc3nnc(C)s3)ns2)cc1	-2.6
COc1ccc(Cn2c(=O)oc3ccccc32)cc1F	-1.4
Cc1ccc(Cl)cc1N1CCN(C(=O)Cc2csc(Nc3nc(=S)[nH]c4ccccc34)n2)CC1	-0.5
O=C(Nc1ccc(Cl)cc1)N1CCC(c2nc(-c3cccs3)no2)CC1	0.2
CC1(C(=O)O)Cc2ccccc2C(=O)O1 (configuration not stated)	-2.6
COc1ccc(CC2(CO)CCN(Cc3ccncc3)CC2)cc1	-0.1
CC(C(=O)Nc1ccc(F)c(F)c1F)N(C)CC(=O)Nc1ccccc1Br (configuration not stated)	0.1
COc1ccccc1C(=O)Nc1ccnn1C1CCN(CC2CC=CCC2)CC1 (configuration not stated)	-1.2

In the list so far, these have a furan ring, fused or not:
SMILES	STK33 inh
O=C(/C=C/c1ccco1)NCC(=O)N/N=C/c1ccc(Cl)cc1	0.2
Cc1ccc2c(C)c(C(=O)N3CCN(Cc4ccccn4)CC3)oc2c1C	-0.1
CC1(OC(=O)CCc2ccccc2)C(=O)C=C2C=C(c3ccc(C#N)cc3)N(Cc3ccco3)C=C2C1=O (configuration not stated)	-0.7
Cc1ccc(NC(=O)CSc2nnc(-c3cccs3)n2Cc2ccco2)cc1	-0.5
O=C(Cn1cc(C(=O)c2ccco2)c2ccccc21)Nc1ccccc1	0.3
CCN(c1cc(C)cc(C)c1)S(=O)(=O)c1nnc(NC(=O)c2ccco2)s1	0.2

(list continues)
SMILES	STK33 inh
COC(=O)c1cc(C)sc1NC(=S)N1CCN(CCc2ccccc2)CC1	0.0
COC(=O)/C(C#N)=C(/Nc1ccc(F)c(Cl)c1)C(F)(F)F	-1.8
OCC[C@H]1C[C@H](O)[C@@H](O)[C@@]2(OCc3ccccc32)O1	-1.0
CCC(C)NC(=O)CN(c1ccc2c(c1)OCO2)S(=O)(=O)c1c(C)n[nH]c1C (configuration not stated)	-0.3
O=C(CCN1C(=O)/C(=C/c2ccc(F)cc2)SC1=S)Nc1cc([N+](=O)[O-])ccc1O	-1.2
CCCCNC(=O)N1CCN(Cc2cccc(F)c2)CC1	-1.3
Cc1cccc(OCC(O)CN2C(C)(C)CC(O)CC2(C)C)c1 (configuration not stated)	0.0
CCCCOC(=O)c1ccc(NC(=O)C(=O)NCc2ccncc2)cc1	0.5
CC(=O)N1c2ccc(Cl)cc2C2OCCC2C1c1ccco1 (configuration not stated)	0.3
Cc1ccccc1-n1c(SCC(=O)NCc2cccs2)nnc1-c1ccncc1	-2.4
Cc1ccc(/C=N/n2c(C)nc3ccccc3c2=O)o1	0.2
CSc1nc(NCc2ccco2)c2sc3nc(C(C)C)c4c(c3c2n1)CC(C)(C)OC4	-1.8
O=C(COC(=O)c1cn(-c2ccccc2)nc1-c1ccccc1)c1ccc([N+](=O)[O-])cc1	-1.4
O=C(COc1ccccc1)NC(=S)Nc1ccc(Br)cn1	0.1
O=C(NCc1ccc2c(c1)OCO2)C12CC3CC(CC(C3)C1)C2	-1.4
COCCCNC(=O)CSc1nc2ccccc2c(=O)n1CCCN1CCCCC1	0.5
c1ccc(N=C(c2cccs2)N2CCOCC2)cc1	-1.2
COC(=O)c1[nH]c2ccccc2c1NC(=O)c1ccccc1F	0.3
O=C(NCC1CCCO1)NC1(C(F)(F)F)Oc2ccccc2O1 (configuration not stated)	-1.0
COC(=O)C1(O)CC(CC(C)C)=NN1C(=O)c1ccccc1 (configuration not stated)	-2.3
O=C(COC(=O)Cc1ccsc1)NC(c1ccccc1)c1ccccc1	0.0
C/C(=N\Nc1ccc(C(F)(F)F)cc1[N+](=O)[O-])C1CC1	-1.0
COc1ccc(/C=N/NC(=O)c2cccc([N+](=O)[O-])c2)cc1OS(=O)(=O)c1ccccc1	0.0
O=C1c2ccccc2C(=O)N1CC1c2ccccc2CCN1C(=O)C1CCCCC1 (configuration not stated)	-2.2
CCc1nnc(N/N=C/c2cccs2)n1N	0.0

(cont.)
SMILES	STK33 inh
COc1cc2c(cc1OC)C(c1ccc(Br)cc1)N(C(=O)c1ccccc1C(=O)O)CC2 (configuration not stated)	-0.8
COc1ccc(NC(=O)C2CCN(S(=O)(=O)c3cn(C)nc3C)CC2)cc1	-1.9
CN(NC(=O)c1ccco1)c1nc2ccccc2nc1C(F)(F)F	0.5
CCOC(=O)c1c(NC(=O)c2cc(C)on2)c2cc([N+](=O)[O-])ccc2n1C	-1.2
Cc1ccc(-c2csc3ncn(/N=C/N(C)C)c(=O)c23)o1	-0.9
COc1ccc(C(CC(=O)O)NC(=O)COc2ccc(C)cc2)cc1OC (configuration not stated)	-1.2
S=c1[nH]nc(-c2ccco2)n1/N=C/c1ccccc1	5.4
CC(=O)Nc1ccc(S(=O)(=O)N2CCN(C(=O)N3CCCCCC3)CC2)cc1	-0.2
CCC(c1nnc(SCC(=O)Nc2c(F)cccc2F)n1Cc1ccccc1)N(C)C (configuration not stated)	-0.2
O=C(NN(c1ccccc1)c1ccccc1)c1ccc([N+](=O)[O-])o1	-0.6
Clc1ccccc1-c1nnc2n1-c1ccccc1SC2	3.8
CCOC(=O)C1CCCN(C2=NC(=O)/C(=C/c3ccc(O)c(OC)c3)S2)C1 (configuration not stated)	14
O=C(NCCCO)c1cc2ccccc2[nH]1	-0.2
COc1ccc(N2CCN(C(=O)CCCC3=NS(=O)(=O)c4ccccc4N3)CC2)cc1	0.5
CCc1cc2c(SCC(=O)N3CC(=O)Nc4ccccc43)ncnc2s1	-0.3
CC(=O)N(c1ccc2oc(=O)sc2c1)S(=O)(=O)c1cccc2cccnc12	-1.5
CC(=O)Nc1ccc(C)c(NS(=O)(=O)c2cccc(C(F)(F)F)c2)c1	4.1
COc1ccc(N(C(C)=O)C2C=CS(=O)(=O)C2)c(OC)c1 (configuration not stated)	-1.4
COCCNC(=O)C(OC(=O)c1cc2oc(C)cc2n1C)C(C)C (configuration not stated)	-0.5
O=C(Cc1ncon1)Nc1ccc(F)c(F)c1F	-5.6
COc1ccc(NC(=O)CN2CCCCC2)c([N+](=O)[O-])c1	-2.6
COc1ccccc1C(=O)N(NC(=O)Oc1ccccc1)C(C)(C)C	0.4
Cc1nn(C)c(C)c1CN(C(=O)CCc1nnc(Cc2c[nH]c3ccccc23)o1)C(C)C	-2.2
CCOc1ccc(S(=O)(=O)N2CCOCC2)cc1NC(=O)CN1C(=O)NC(C)(c2ccccc2)C1=O (configuration not stated)	-2.7

As entered above:
O=C(Cc1ncon1)Nc1ccc(F)c(F)c1F in STK33 inh shows -5.6
Clc1ccccc1-c1nnc2n1-c1ccccc1SC2 in STK33 inh shows 3.8
CC(=O)Nc1ccc(S(=O)(=O)N2CCN(C(=O)N3CCCCCC3)CC2)cc1 in STK33 inh shows -0.2
Cc1ccc(-c2csc3ncn(/N=C/N(C)C)c(=O)c23)o1 in STK33 inh shows -0.9
COCCNC(=O)C(OC(=O)c1cc2oc(C)cc2n1C)C(C)C (configuration not stated) in STK33 inh shows -0.5
COc1ccc(NC(=O)CN2CCCCC2)c([N+](=O)[O-])c1 in STK33 inh shows -2.6

Part of the list above, with each value named:
mol: CC(=O)N(c1ccc2oc(=O)sc2c1)S(=O)(=O)c1cccc2cccnc12
  STK33 inh = -1.5
mol: Cc1nn(C)c(C)c1CN(C(=O)CCc1nnc(Cc2c[nH]c3ccccc23)o1)C(C)C
  STK33 inh = -2.2
mol: CC(C(=O)NCc1ccc2c(c1)OCO2)c1ccc([N+](=O)[O-])cc1 (configuration not stated)
  STK33 inh = -1.3
mol: COCCCNC(=O)CSc1nc2ccccc2c(=O)n1CCCN1CCCCC1
  STK33 inh = 0.5

High-throughput results (PubChem)
